Assay outcomes (PubChem BioAssay)
MT1-MMP act inh = blocks activation of human MT1-MMP. HT1080 RFP-PRO-GFP cells, GFP/RFP ratio fluorescence, overnight; percent of plate control window, DMSO zero. hit rate 0.061% among 360,000. P50281. GFP/RFP ratio change, % at 20 µM;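 active means GFP/RFP ratio change of at least 30% with cell ATP level not reduced by more than half and red fluorescence within 50% of control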; further: strong numbers were not always called active
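Material – HT1080 RFP-PRO-GFP cells · Control set – DMSO wells and RFP-L50D-GFP cells · Incubation – overnight cell settling, then overnight compound exposure, 37 °C, 5% CO2 · Compound dosing – single-point 20 µM compound, 1% DMSO · Read-out – GFP/RFP fluorescence ratio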
eIF4H inh = inhibitors of RNA binding by human eIF4H; Q15056; eIF4H fluorescence polarization binding assay; inhibition, % at 35 µM; hit rate 0.94% among 290,000;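 active means 50% or more with normal probe brightness, or confirmed in later tests; inconclusive means above 50% with abnormal brightness, or retests that disagree; inactive means below 50% or failed in later tests; about a fifth of its hits are not listed in these tables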;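 further: calls also rest on retests at 20 µM and on dose response follow-up; 0% = protein and probe with vehicle and 100% = probe without protein; strong numbers were not always called active; many hits fall short of the cut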
UUG fidelity = modulators of start codon recognition fidelity in yeast | S. cerevisiae UUG-firefly luciferase reporter, luminescence/redox ratio | hit rate 0.13% among 350,000 | activity score, % at 18.7 µM | AID 602363;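 active means replicate mean at a twofold rise or more, about +100% in these data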;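 further: firefly luciferase made from a UUG start codon reports start codon fidelity; reporter light over untreated wells divided by growth signal over untreated wells; some hits fall short of that in this replicate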
CSC inhib = cancer stem cell inhibition; inhibition, % at 7.5 µM; cancer stem cell-like cells viability, luminescence; hit rate 1.1% among 300,000;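 active means mean at 75% or more and at least half the replicates too; inconclusive means mean and replicates disagree; tested in HMLE shEcad cells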;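 further: 0% = median of negative and 100% = median of positive control wells; the first replicate is given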
Env fusion inh = inhibitors of HIV Env-mediated cell fusion; HeLa-JRFL Env/CEM21 cell fusion, luciferase; inhibition, % at 12.3 µM; hit rate 1.1% among 360,000;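 active means mean replicate inhibition score of at least 50 and every replicate individually at or above 50; inconclusive means only one of the two criteria met; inactive means mean below 50 and not all replicates reaching 50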;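 further: 0% = plate neutral controls and 100% = maraviroc near 300 nM; one replicate is shown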
Rce1 inh = inhibitors of yeast Ras-converting enzyme; yeast membranes, quenched prenylated peptide cleavage fluorescence; Q03530; hit rate 0.27% among 290,000; calls only; AID 2563;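 active means fall in fluorescence gain of 50% or more versus controls, with final raw signal at or below 3038400; inconclusive means same 50% fall but final raw signal above 3038400; inactive means fall in fluorescence gain under 50%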;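 further: plate controls were neutral control wells for no effect and wells lacking membranes for full effect; tested at 10 µM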
Target sequence (Q03530 whole entry, looked up): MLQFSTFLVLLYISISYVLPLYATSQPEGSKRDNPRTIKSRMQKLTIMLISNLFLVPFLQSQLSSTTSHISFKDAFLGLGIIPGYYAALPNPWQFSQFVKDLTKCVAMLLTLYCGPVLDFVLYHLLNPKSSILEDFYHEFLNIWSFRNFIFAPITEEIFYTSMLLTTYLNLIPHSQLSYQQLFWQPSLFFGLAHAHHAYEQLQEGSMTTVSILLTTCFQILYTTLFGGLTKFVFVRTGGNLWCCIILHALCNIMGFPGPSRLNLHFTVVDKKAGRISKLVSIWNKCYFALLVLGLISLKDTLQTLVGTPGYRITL
PABP FP inh = PABP-poly(A) binding inhibition. PABP-poly(A) RNA binding, fluorescence polarization. hit rate 1% among 290,000. P11940. inhibition, % at 35 µM. AID 2014;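 active means 50% or more with normal probe brightness, or confirmed in later tests; inconclusive means above 50% with abnormal brightness, or retests that disagree; inactive means below 50% or failed in later tests; about a fifth of its hits are not listed in these tables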;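 further: calls also rest on retests at 20 µM and on dose response follow-up; controls were probe without protein and protein plus probe with vehicle; some compounds called inactive have numbers as strong as hits; many hits fall short of the cut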
Target sequence (P11940 whole entry, looked up): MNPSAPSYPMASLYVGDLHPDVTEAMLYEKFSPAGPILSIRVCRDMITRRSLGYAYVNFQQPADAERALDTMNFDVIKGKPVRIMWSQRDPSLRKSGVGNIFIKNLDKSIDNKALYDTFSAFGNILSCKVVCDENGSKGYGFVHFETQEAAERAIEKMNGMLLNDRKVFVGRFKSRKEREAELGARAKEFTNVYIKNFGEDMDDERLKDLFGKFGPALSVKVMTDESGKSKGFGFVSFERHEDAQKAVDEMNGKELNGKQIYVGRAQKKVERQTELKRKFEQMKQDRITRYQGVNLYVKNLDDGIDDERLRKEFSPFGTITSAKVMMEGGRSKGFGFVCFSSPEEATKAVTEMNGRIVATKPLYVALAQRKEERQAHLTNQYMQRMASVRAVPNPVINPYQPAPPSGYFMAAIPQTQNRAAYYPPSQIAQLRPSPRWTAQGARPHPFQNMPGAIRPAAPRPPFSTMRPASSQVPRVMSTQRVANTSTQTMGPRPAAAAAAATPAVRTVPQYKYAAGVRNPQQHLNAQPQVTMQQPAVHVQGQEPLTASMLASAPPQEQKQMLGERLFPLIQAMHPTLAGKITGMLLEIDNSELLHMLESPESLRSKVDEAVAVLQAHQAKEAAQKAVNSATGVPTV
eIF4H inh retest = further read-out of eIF4H inh, marked with its call; inhibition, %; compound at 20 µM; confirmation average;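 mean of two retest wells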
PABP FP inh retest = also measured in PABP FP inh; calls as there; inhibition, %; compound at 20 µM; confirmation repeats;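 mean of two retest wells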
MT1-MMP act inh RFP = further read-out of MT1-MMP act inh, marked with its call; RFP signal change, %; measured here: RFP expression control read;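 0 = vehicle wells; hits needed this value within 50% of zero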
* marks the source's active call; other numbers are inactive results; i = inactive; u = inconclusive; x = no result given; + = active, no number; & = joins results of further samples.

SMILES	MT1-MMP act inh	MT1-MMP act inh RFP	eIF4H inh	UUG fidelity	CSC inhib	Env fusion inh	Rce1 inh	PABP FP inh	others
COc1ccc2ccccc2c1C(O)c1nccn1C (stereo not given)	-244	0	u	-16	-11	-21	i	u
COc1cccc(NC(=O)c2ccc(NC(=O)C(C)C)cc2)c1	5	0	-5	x	-6	-17	i	2
O=C(O)CCN1C(=O)/C(=C2\C(=O)N(Cc3ccccc3Cl)c3ccccc32)SC1=S	-2	2	81	-16	12	-5	i	1	eIF4H inh retest=-5;PABP FP inh retest=-1
Cc1cc(C(=O)N2CCC2(C)C(=O)O)c(C)o1 (stereo not given)	-1	1	x	-1	x	15	x	x
Cc1ccccc1NC(=O)c1cccc(C(=O)Nc2ccccc2C)c1	-2	-6	x	x	1	u	i	x
COc1cc(C2C3=C(CC(C)(C)CC3=O)N(C)C3=C2C(=O)CC(C)(C)C3)cc(Br)c1O	-4	0	3	-17	-18	18	i	-8
Cc1cccn2c(=O)c3cc(S(=O)(=O)c4ccccc4)c(=N)n(Cc4cccnc4)c3nc12	-4	-3	-1	-20	x	-13	i	2
COc1ccc(-n2c(=S)[nH]c3cc(C(=O)NCc4ccccc4OC)ccc3c2=O)c(OC)c1	1	-6	-6	x	3	8	i	11
CCOc1ccccc1C(=O)NCC(=O)OCC(=O)c1c(N)n(C)c(=O)n(C)c1=O	0	2	x	-9	-2	-3	x	x
COc1ccc(NC(=O)C(C)SCc2ccccc2)cc1OC (stereo not given)	3	-6	-3	1	-14	x	i	-7
O=C(O)c1ccc(S(=O)(=O)N(Cc2ccccc2)Cc2ccccc2)cc1	-2	1	-3	-5	-9	-21	i	2
CN(CC(=O)N1CCN(Cc2ccccc2)CC1)C(=O)Cc1cccc2ccccc12	3	-9	x	-9	-11	26	x	x
CCOC(=O)c1oc2ccccc2c1COC(=O)CNC(=O)c1ccccc1	-1	3	1	-6	-10	-4	x	2
COc1ccccc1NC(=O)CN(c1ccccc1F)S(C)(=O)=O	0	5	2	-41	-4	-9	i	2
CCN(C(=O)CCCC(=O)N(CC)c1ccccc1)c1ccccc1	0	6	6	x	7	0	i	1
Cc1ccc(CNC(=O)NC23CC4CC(CC(C4)C2)C3)cc1	8	2	-6	x	2	-23	i	-1
Cc1c(Cl)cccc1NC(=S)NCCc1ccccn1	6	0	-8	-20	-10	10	i	7
C/C(=C\c1cccc(Cl)c1)C(=O)c1c(C)cc(C)[nH]c1=O	-3	-3	3	-4	-9	-13	i	10
CC(NC(=O)[C@H](NC(=O)[C@@H]1Cc2ccccc2CN1)c1ccccc1)c1ccccc1 (stereo not given in full)	0	1	-2	-14	-3	x	i	10
CCOC(=O)c1cnn(-c2ncnc3c2oc2ccccc23)c1N	1	6	-4	-21	-11	x	i	11
CCN(C(=O)COC(=O)/C=C/c1ccccc1)C1CCCCC1	-2	-4	2	x	-2	13	i	8
C=CCn1c(SCC(=O)Nc2ccc(O)cc2)nc2sc(CC)cc2c1=O	1	0	-2	-19	-6	-2	i	5
O=C(O/N=C(/c1ccccc1)c1ccncc1)c1cccc(F)c1	1	0	-11	x	-19	-16	x	4
COC(=O)Cn1c(=O)c2c(nc3n2CC(C)CN3c2ccc(C)c(C)c2)n(C)c1=O (stereo not given)	1	2	-9	-33	0	0	i	1
c1ccc(Oc2cccc(OCCCn3cncn3)c2)cc1	-5	-2	-4	0	-3	4	i	-8

Six compounds picked at random from those above, as already listed:
SMILES	MT1-MMP act inh	MT1-MMP act inh RFP	eIF4H inh	UUG fidelity	CSC inhib	Env fusion inh	Rce1 inh	PABP FP inh	others
Cc1c(Cl)cccc1NC(=S)NCCc1ccccn1	6	0	-8	-20	-10	10	i	7
COC(=O)Cn1c(=O)c2c(nc3n2CC(C)CN3c2ccc(C)c(C)c2)n(C)c1=O (stereo not given)	1	2	-9	-33	0	0	i	1
CCN(C(=O)CCCC(=O)N(CC)c1ccccc1)c1ccccc1	0	6	6	x	7	0	i	1
CCOc1ccccc1C(=O)NCC(=O)OCC(=O)c1c(N)n(C)c(=O)n(C)c1=O	0	2	x	-9	-2	-3	x	x
Cc1ccc(CNC(=O)NC23CC4CC(CC(C4)C2)C3)cc1	8	2	-6	x	2	-23	i	-1
COc1ccc(-n2c(=S)[nH]c3cc(C(=O)NCc4ccccc4OC)ccc3c2=O)c(OC)c1	1	-6	-6	x	3	8	i	11

Carrying on:
SMILES	MT1-MMP act inh	MT1-MMP act inh RFP	eIF4H inh	UUG fidelity	CSC inhib	Env fusion inh	Rce1 inh	PABP FP inh	others
COc1cc(-c2nc3c(c(C)nn3-c3ccccc3)c3cc(OC)c(OC)cc23)ccc1O	-5	-15	-5	-13	66	x	i	-5
O=C(O)CCC(=O)Nc1cc(C(F)(F)F)cc(C(F)(F)F)c1	-4	1	-2	x	-1	-7	i	7
COc1ccc(C(CNc2ccc(S(=O)(=O)N3CCN(C)CC3)cc2[N+](=O)[O-])N(C)C)cc1 (stereo not given)	3	1	x	-12	x	-7	x	x
COc1ccccc1CC(=O)Nc1ccc2[nH]ncc2c1	-1	0	4	-16	3	-1	i	7
CC(C)CC(C(=O)NC1CCCC1)N(Cc1ccc2c(c1)OCO2)C(=O)c1snc(C(N)=O)c1N (stereo not given)	2	3	0	x	-17	2	x	6
COc1ccc(N2CC(C(=O)Nc3ccc4c(c3)OCCO4)CC2=O)cc1 (stereo not given)	1	0	14	-2	-23	3	i	-4
Cc1noc2ncnc(SCc3ccc(C(F)(F)F)cc3)c12	6	-5	0	-35	2	-10	i	-2
c1ccc(Oc2cccc(CN3CCCCC3)c2)cc1	1	1	8	-20	-8	8	i	0
O=C(COC(=O)c1ccc(F)cc1)Nc1nc2ccc([N+](=O)[O-])cc2s1	-8	-4	6	x	11	8	i	-16
Cc1cc(NC(=O)CCN2C(=O)/C(=C/c3ccccc3F)SC2=S)no1	x	x	-12	x	2	5	i	3
COc1ccc(-c2noc(CN3C(=O)c4ccccc4C3=O)n2)cc1	9	0	1	-9	-10	-24	i	-2
Cc1cc(C)c(NC(=O)CNC(=O)CNC(=O)C2CCCCC2)c(C)c1	-3	0	x	-1	-3	x	x	x
Cc1cc(/C=C2\SC(=S)NC2=O)cc(C)c1O	-12	17	21	-11	23	33	i	-10
Cc1cc(NC(=O)NC2CCCN2S(=O)(=O)c2ccc(Cl)cc2)no1 (stereo not given)	2	1	-5	-16	-8	x	i	14
CC(=O)N1N=C(c2ccccc2)CC1c1cccs1 (stereo not given)	2	0	-1	2	-7	6	i	-2
O=C(Nc1cccc(F)c1)OC(CN1CCCCC1)C(F)(F)F (stereo not given)	5	10	4	-16	-1	x	i	-7
CCOCCCNC(=O)/C(C#N)=C/c1ccc([N+](=O)[O-])o1	12	32	44	-13	+	-15	i	7
CCCC(C(=O)N1CCOCC1)N1C(=O)C2C3C=CC(C3)C2C1=O (stereo not given)	-3	-1	-2	-9	-14	x	i	3
CC(=O)Nc1cccc(NC(=O)c2cc3ccccc3o2)c1	8	4	-1	x	-1	-65	i	0
O=C(CSc1nncc2ccccc12)N1CCCCC1	-7	-3	3	x	x	-7	i	-1
O=C(CSc1nc2[nH]ncc2c(=O)[nH]1)NCc1ccccc1	-3	4	-4	-34	-7	10	i	3
CC(=NCCN1CCN(C(C)=C2C(=O)c3ccccc3C2=O)CC1)C1=C(O)CC(C)(C)CC1=O	-4	4	1	1	-19	x	i	16
O=C(CN1CCCC1)Nc1c(C(=O)C2CC2)oc2ccccc12	0	-2	0	x	-6	-3	i	-7
CN(C)C(=O)/C=C\c1cn(-c2ccccc2)nc1-c1ccc2c(c1)OCCO2	0	0	1	x	x	-6	i	2
CCC(C)Nc1nc2c(C)cccn2c(=O)c1C=Nc1ccc(OC)cc1 (stereo not given)	-3	-3	-7	x	22	18	i	5

(continued)
SMILES	MT1-MMP act inh	MT1-MMP act inh RFP	eIF4H inh	UUG fidelity	CSC inhib	Env fusion inh	Rce1 inh	PABP FP inh	others
Cc1ccc(N2CCN(C(=O)c3ccccc3NC(=O)/C=C\C(=O)O)CC2)cc1	1	5	-12	-15	-10	x	i	2
CN(C)c1nc(-c2cn(CCC#N)c3ccccc23)cs1	21	20	18	21	27	7	i	39
C=C(C)C(=O)N1CC2(CC(c3cccc(NC(=O)CC)c3)=NO2)C[C@H]1C(N)=O (stereo not given in full)	2	1	3	-22	-4	x	i	-1
O=C(Cn1cc(Cl)c([N+](=O)[O-])n1)NCCC1=CCCCC1	5	1	0	-19	6	18	i	8
Cc1cc(Cl)ccc1OCC(=O)OCC(=O)NC1CCCC1	3	6	x	-13	x	0	x	x
CC(C)c1ccc(NC(=O)c2cc(-c3cc(F)ccc3OCC3CCCO3)n[nH]2)cc1 (stereo not given)	1	-3	x	-8	x	-4	x	x
CCC(=O)Nc1ccc(-c2ccc(N3CCN(C)CC3)nn2)cc1	-1	-1	-8	-11	-10	x	i	2
NS(=O)(=O)c1cccc(C(=O)NC2CCSc3ccccc32)c1 (stereo not given)	1	4	-8	-5	16	9	i	-6
COc1ccc(OC)c(CNC(=O)CCS(=O)(=O)c2ccc3c(c2)oc(=O)n3C)c1	4	3	4	-13	0	9	i	8
COc1ccccc1N1CCN(C(=O)/C=C/c2ccc(C)cc2)CC1	-3	-4	-1	x	-21	9	i	-6
CC(C)(C)C(=O)/C=C1\NC(=O)CS1	1	1	-1	x	13	-10	i	u
CCCCCc1nnc(NC(=O)NS(=O)(=O)c2ccc(C)cc2)s1	0	1	-6	-16	-18	-12	i	3
Cc1c(/C=N\NC(=O)C2COc3ccccc3O2)c2ccccc2n1C (stereo not given)	11	-5	-1	x	52	-22	i	5
O=[N+]([O-])c1ccc2cccnc2c1	1	5	x	-12	x	-30	x	x
CCN(CC)S(=O)(=O)c1ccc(NC(=O)CN(c2cccc(C)c2)S(C)(=O)=O)cc1	4	-8	-1	7	2	-26	i	-3
COc1ccc2c(c1)c(C(=O)CN1CCC(C(N)=O)CC1)c(C)n2C	-2	1	105	9	20	-41	i	-3	eIF4H inh retest=-4;PABP FP inh retest=2
COC(=O)[C@H](Cc1ccccc1)NC(=O)N1CCCCC1C (stereo not given in full)	-3	2	-4	-2	-9	-6	i	-8
CCOC(=O)[C@@H]1[C@H]2COc3ccccc3[C@@H]2N2C(=O)N(c3cccc(F)c3)C(=O)[C@@]12C	5	3	x	-8	-12	u	x	x
CC1=C/C(=N\OS(=O)(=O)c2ccccc2)C(C)=CC1=O	-23	-22	1	-42	118*	x	x	-8
O=C(N/C(=N\O)c1ccccc1)Nc1ccc(Cl)cc1	4	8	-8	x	19	x	x	6
COc1ccc(-c2csc(NC(C)c3nc4cc(Cl)c(Cl)cc4n3CCOCCO)n2)cc1 (stereo not given)	-3	-10	x	-22	3	2	i	x
Cc1c(N)cc(N)cc1C(=O)O	-20	8	83*	-9	-14	-6	i	50*
C[C@@H](O)C#Cc1ccc2c(c1)O[C@H](CN(C)C(=O)Nc1ccccc1)[C@@H](C)CN([C@@H](C)CO)S2(=O)=O	2	4	x	9&4	x	7	x	x
CCOC(=O)CSc1nnc(Cc2ccccc2)n1Cc1ccco1	-1	4	-8	-6	-6	5	i	-6
CCN(CC)S(=O)(=O)c1ccc(OC)c(NS(=O)(=O)c2cccc(C(=O)O)c2)c1	-3	9	7	x	1	28	i	8
CCCCc1nc2ccccc2c(N)c1CCC (tested in a mixture with another compound)	6	3	-9	x	x	x	i	-18
Cc1cccc(C)c1-n1nnnc1C(CCc1ccccc1)N1CCN(C/C=C/c2ccccc2)CC1 (stereo not given)	-8	-24	x	4	x	-59	x	x
